GLA inh pH 4.5 = alpha-galactosidase A (human) inhibition, pH 4.5; 230,000 tested, under 10 active; purified enzyme, 4-MU-alpha-Gal fluorescence, pH 4.5; activity change, negative = inhibition, % at 105 µM; P06280; AID 1467; inconclusive = small, poorly fitted or top-dose-only inhibition, or a rising curve; inactive = flat fitted curve, though single readings scatter; no compound was filed as active;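 note: 0% = full activity with enzyme and -100% = basal without enzyme; dose as in the result columns while the protocol names 77 µM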
Target sequence (P06280 whole entry, looked up): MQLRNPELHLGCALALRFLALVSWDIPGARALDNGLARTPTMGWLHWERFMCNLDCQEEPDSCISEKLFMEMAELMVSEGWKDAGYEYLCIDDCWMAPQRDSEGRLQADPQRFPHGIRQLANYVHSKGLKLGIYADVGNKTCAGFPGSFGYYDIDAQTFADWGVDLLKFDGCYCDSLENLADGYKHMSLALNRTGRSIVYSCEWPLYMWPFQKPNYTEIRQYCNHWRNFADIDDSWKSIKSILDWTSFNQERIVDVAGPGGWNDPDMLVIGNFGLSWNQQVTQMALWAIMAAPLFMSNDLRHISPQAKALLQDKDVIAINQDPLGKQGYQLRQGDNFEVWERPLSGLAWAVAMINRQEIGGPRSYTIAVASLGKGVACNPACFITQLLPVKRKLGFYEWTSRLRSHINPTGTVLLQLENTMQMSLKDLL
Rango release inh = inhibitors of RanGTP-induced Rango-importin beta complex dissociation | AID 540253 | 340,000 compounds, 0.071% hits | Biochemical FRET Rango-importin beta, RanGTP-induced dissociation | O95149+P62826 | Potency, µM (series often up to 46.1 µM), without a hit: at the top dose activity change, negative = inhibition; active means falling FRET ratio curve, often poorly fitted, with flat reads before Ran was added; inconclusive means other falling curves, or compound fluorescence or quenching; inactive means flat or rising ratio curve;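 note: potency is the fitted concentration of half-maximal effect; % of control where 0% means no effect; nearly all actives have a fitted effect of over 45% in size; -100% = wells without RanGTP and RCC1; the record marks most hits as doubtful in a second field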
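Compounds sat 5 min at room temperature with 0.1 uM Rango biosensor plus 0.25 uM importin beta, then FRET pre-read. RanGTP-RCC1 (0.6 uM Ran, 2mM GTP, 0.2 uM RCC1) added for 45 min, and the CFP/YFP post-read measured blocked complex dissociation.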
miR-21 reporter = raises the signal of a miR-21 reporter. HeLa miR-21 FLuc reporter, luciferase, 48 h. Potency, µM (series often up to 38.3 µM), without a hit: at the top dose reporter change, positive = more light. 340,000 tested, under 10 active. AID 2288; active = well fitted rising curve with a large enough effect; inconclusive = small, poorly fitted or top-dose-only effect; inactive = no such curve, though single readings can be large or run the other way;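 note: % of control where 0% means no effect; miR-21 action dims this reporter so a rising signal means less miR-21 action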
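HeLa cells stably expressing CMV-driven firefly luciferase with a downstream miR-21 binding sequence, endogenously expressing miR-21, were treated with titrations (up to about 40uM final) for 48 hours at 37 degree Celsius. Luciferase luminescence was read after lysis.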
Rango-impB inh = inhibitors of Rango-importin beta complex formation; Rango CFP/YFP FRET sensor + importin beta, 45 min; Potency, µM (series often up to 92.2 µM), for inactives: at the highest dose inhibition of complex formation; 340,000 compounds, 0.031% hits; active = rising FRET ratio curve, often small or poorly fitted; inconclusive = mostly compound fluorescence or quenching in the first reads; inactive = flat curves in all reads;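 note: potency is the fitted concentration of half-maximal effect; 0% = DMSO wells and 100% = buffer wells lacking importin beta; nearly all actives have a fitted effect of over 15% in size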
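FRET biosensor Rango (snurportin 1 IBB between N-terminal EYFP and C-terminal Cerulean), 50 nM in PBS/1 mM DTT/0.02% Tween-20/0.1% BSA, preincubated 5 min RT with compound; 0.125 microM importin beta added, 45 min RT, CFP/YFP FRET ratio read.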
Numbers without * were called inactive; ? = inconclusive; nt = not tested or not shown; & = joins results of further samples; [ ] = dose if it differs, or a comment. This is a subset; the hit share may differ from the screen's.

GLA inh pH 4.5,Rango release inh,miR-21 reporter,Rango-impB inh,SMILES
nt,7%,nt,1.2%,Nc1c(C(=O)CSc2n[nH]c(-c3ccccc3Br)n2)c(=O)[nH]c(=O)n1C1CC1
5,6%,-56%,7.8%,CCn1c2ccccc2c2cc(NC(=O)C(=O)N3CCOCC3)ccc21
-9,1%,-6%,-0.3%,O=C(NCc1ccccc1)Nc1cc(Cl)ccc1Cl
6,25%,-1%,0.8%,COc1ccc(Oc2c(C)oc3c(CN(C)C)c(O)ccc3c2=O)cc1
-30,16%,0%,4.8%,O=C(NCC1CCCO1)C1c2ccccc2C(=O)N1C1CCCCCCC1 (stereo unspecified)
7,-5%,1%,-2.8%,CCS(=O)(=O)n1nc(-c2ccco2)nc1SC
-2,3%,-45%,-0.3%,Cc1[nH]nc(Nc2ccc(Br)cc2)c1[N+](=O)[O-]
-1,-1%,-12%,1.1%,O=C(N/N=C/c1ccco1)c1cc(-c2ccc(Br)s2)[nH]n1
0,10%,2%,3.1%,C/C(=N\NC(=O)c1cccc(S(=O)(=O)N2CCOCC2)c1)c1cc2ccccc2o1
nt,-2%,-24%,1.3%,CN(C(=O)c1ccc(N2CCOCC2)c([N+](=O)[O-])c1)C1CCCCC1
nt,1%,nt,-0.2%,CCOC(=O)c1sc(NC(=O)CSCc2c(C)noc2C)nc1C
nt,6%,-1%,2.3%,CN(Cc1cnn(C)c1)C(=O)C1CCC(=O)N(C2CCCCCC2)C1 (stereo unspecified)
-9,6%,12%,-0.2%,Nc1cc(Cl)ccc1N1CCCC1
nt,1%,-12%,-0.9%,COc1ccc(NC(=S)N(CCCOC(C)C)C2CCN(C(C)=O)CC2)cc1Cl
-12,-6%,-5%,-0.8%,Cc1ccc(S(=O)(=O)C(F)(F)F)cc1NC(=O)c1cccnc1
-4,-4%,-12%,?,Cc1[nH]c2ccccc2c1C(=O)CSc1ccc(Cl)cc1
nt,-12%,-1%,2.3%,CCC(=O)N1CCc2cc(S(=O)(=O)NCCC(=O)Nc3ccc(OC)cc3)ccc21
7,17%,-19%,-3.6%,Fc1ccc(Cn2c(SCc3ccc(F)c(F)c3)nnc2C(F)(F)F)cc1
-4,1%,-11%,-2.4%,CCOc1cc(S(=O)(=O)N2CCCCC2)ccc1Cl
-5,2%,-69%,3.7%,COc1ccc(-c2csc(N3C(=O)CNC3=S)n2)cc1

Single records, as listed above. Values in the order: GLA inh pH 4.5 | Rango release inh | miR-21 reporter | Rango-impB inh
Nc1c(C(=O)CSc2n[nH]c(-c3ccccc3Br)n2)c(=O)[nH]c(=O)n1C1CC1 is listed as nt | 7% | nt | 1.2%
CCS(=O)(=O)n1nc(-c2ccco2)nc1SC is listed as 7 | -5% | 1% | -2.8%
COc1ccc(-c2csc(N3C(=O)CNC3=S)n2)cc1 is listed as -5 | 2% | -69% | 3.7%

More records:
GLA inh pH 4.5,Rango release inh,miR-21 reporter,Rango-impB inh,SMILES
nt,-3%,-45%,-4.2%,CCN1CCN(c2ccc(NC(=O)c3cccc(N4CCCC4=O)c3)cc2)CC1
6,0%,-5%,-0.8%,CNS(=O)(=O)c1cc(Cl)ccc1Sc1ccccc1C(=O)O
4,-17%,-2%,-0.1%,O=C(Cc1cc(=O)[nH]c(=O)[nH]1)N1CCN(C(=O)c2ccco2)CC1
-6,2%,-2%,-0.8%,COc1ccc(C(C)(C)C)cc1S(=O)(=O)N1CCC(C(N)=O)CC1
1,0%,19%,9.1%,OC(CNC1CCCCC1)COCCOc1ccc(Br)cc1 (stereo unspecified)
nt,-11%,-15%,-0.3%,Cc1cccc(CC(=O)Nc2ccc(C(=O)N3CCOCC3)cc2)c1
0,-2%,-8%,1.4%,CCOC(=O)C1CCCN(C(=O)c2ccc3c(c2)OCO3)C1 (stereo unspecified)
-4,-3%,1%,0.7%,COc1cccc(OCCNC(=O)c2ccccc2Sc2ccccc2C#N)c1
-1,-8%,-2%,-0.1%,CC(=O)C(Cc1cccc(F)c1)(Cc1cccc(F)c1)C(C)=O
1,-4%,7%,-1.0%,CC1CC(C)CN(CCOc2ccccc2-c2ccccc2)C1 (stereo unspecified)
-8[21.1 µM],-4%,1%,-0.6%,CC(/C=N/N1CCN(Cc2ccccc2)CC1)=C\c1ccccc1
1,-1%,0%,-3.5%,Cc1cc(C)n(C(=O)CNC(=O)C(c2ccccc2)c2ccccc2)n1
nt,1%,nt,2.6%,C#CCOCCOCCOCCNc1nc(N2CCN(C(=O)[C@H]([C@@H](C)CC)n3cc(CCCN=C(N)N)nn3)CC2)nc(N2CCN(C(=O)[C@H]([C@@H](C)CC)n3cc(CCC(=O)O)nn3)CC2)n1
3,-16%,-47%,1.0%,O=C(Cc1ccccc1)NCc1ccncc1
2,-9%,-11%,-0.4%,CCOC(=O)C1CC(c2ccccc2)=NNC1=O (stereo unspecified)
-10,-17%,2%,-0.7%,Cc1cccc(NC(=O)NCc2ccc3c(c2)cc(C)n3C)c1
nt,-8%,-2%,-2.2%,COc1ccccc1CCCNC(=O)C1CCC(=O)N(CCN2CCOCC2)C1 (stereo unspecified)
nt,-3%,-15%,-3.3%,Cc1ccccc1OCC(=O)Nc1ccc2[nH]ncc2c1
nt,-3%,nt,0.5%,CC(NC(=O)c1ccccc1Cl)c1ccc(-n2ccnc2)cc1 (stereo unspecified)
-2,-7%,-4%,8.3%,O=C(O)C1CCCCC1C(=O)NCCc1cccc(Cl)c1 (stereo unspecified)

An excerpt from above in order of heavy-atom count, smallest number first.
GLA inh pH 4.5,Rango release inh,miR-21 reporter,Rango-impB inh,SMILES
-9,6%,12%,-0.2%,Nc1cc(Cl)ccc1N1CCCC1
7,-5%,1%,-2.8%,CCS(=O)(=O)n1nc(-c2ccco2)nc1SC
-2,-7%,-4%,8.3%,O=C(O)C1CCCCC1C(=O)NCCc1cccc(Cl)c1 (stereo unspecified)
-1,-8%,-2%,-0.1%,CC(=O)C(Cc1cccc(F)c1)(Cc1cccc(F)c1)C(C)=O
nt,6%,-1%,2.3%,CN(Cc1cnn(C)c1)C(=O)C1CCC(=O)N(C2CCCCCC2)C1 (stereo unspecified)

Next section
GLA inh pH 4.5,Rango release inh,miR-21 reporter,Rango-impB inh,SMILES
nt,2%,nt,?,O=C(COC(=O)c1ccc(Cl)nc1)NNC(=O)c1ccc(Br)cc1
-1,-9%,-44%,-1.5%,O=C1CCN(C(=O)/C=C/c2ccccc2)c2ccccc21
3,-3%,8%,-2.0%,Cc1cc(C)nc(SCC(=O)Nc2ccc(N3CCOCC3)c(Cl)c2)n1
8,-2%,-8%,-0.1%,CCOC(=O)N1CCC(c2cc(=O)n3[nH]c(-c4ccccc4)cc3n2)CC1
0,1%,4%,0.0%,COC(=O)c1ccc2c(=O)n(NC(=O)C(c3ccccc3)c3ccccc3)c(=S)[nH]c2c1
0,11%,-1%,-0.4%,O=C(NCCCN1CCCC1=O)c1ccc(CNS(=O)(=O)c2ccc(F)cc2)cc1
-6,8%,8%,-2.0%,COc1cc(OC)cc(C(=O)NCc2cc(C)nc3ccccc23)c1
-2,-4%,-4%,3.7%,N=C(CC1CC(=O)NC(=O)C1)C1=C(O)CCCC1=O
2,6%,2%,0.6%,Cc1cc(C)n2ncnc2n1
0,?,3%,?,Cc1ccccc1NC(=O)CN1C(=O)S/C(=C\c2ccc(-c3cc(C(=O)O)ccc3C)o2)C1=O
0,1%,-2%,-0.3%,CC(C)CCN(C)C1CCN(S(=O)(=O)c2ccc(F)cc2)CC1
-4,-13%,0%,-0.7%,Cn1nnnc1SCC(=O)Nc1cccc(S(=O)(=O)N2CCCC2)c1
nt,7%,2%,-0.2%,Cc1ccc(C)c(CN2C(=O)CSc3ccc(C(=O)NCC(C)CN4CCC(C)CC4)cc32)c1 (stereo unspecified)
nt,-9%,-4%,4.0%,NC(N)=NS(=O)(=O)c1ccc(NC(=S)Nc2ccc(F)cc2)cc1
-9,10%,-3%,-4.0%,CN(C)Cc1ccccc1Sc1ccccc1Br
-4,0%,-31%,-6.1%,Cn1c(C(=O)NCc2ccc3c(c2)OCO3)cc2sccc21
nt,0%,0%,-5.1%,COc1cccc(CNC(=O)C2CCCN(c3cnccn3)C2)c1 (stereo unspecified)
nt,13%,1%,1.4%,C=CCN1C(=O)N(c2ccccc2)C(=O)C1CC(=O)Nc1ccc(OC)cc1 (stereo unspecified)
nt,-6%,nt,-1.8%,CN(c1ccccc1)S(=O)(=O)c1cc(C(=O)OCC(=O)c2c(N)n(C)c(=O)n(C)c2=O)ccc1Cl
1,-15%,-6%,0.4%,COc1ccc(/C=C/c2c([N+](=O)[O-])c(=O)n(C)c(=O)n2C)c(OC)c1OC

(next part)
GLA inh pH 4.5,Rango release inh,miR-21 reporter,Rango-impB inh,SMILES
-10,-5%,-7%,-0.3%,CCOC(=O)C1=C(C)N2C(=C(C#N)[C@@H]1c1ccc(C(=O)OC)cc1)SC[C@@]2(O)C(C)(C)C
1,-10%,-1%,-0.8%,COc1cc2c(cc1OC)C(C)N(C(=O)c1nccnc1C(=O)O)CC2 (stereo unspecified)
-3,5%,-2%,-3.7%,COC(=O)C1C2C=CC3(CN(C4CCCC4)C(=O)C13)O2 (stereo unspecified)
-2,-3%,-57%,-0.8%,Cn1c(NCc2ccc(Cl)cc2)nc2ccccc21
-16,0%,nt,0.9%,COc1cc(C2CC(=O)Oc3cc(C)cc(C)c32)cc(OC)c1OC (stereo unspecified)
nt,-11%,nt,?,CCOC(=O)c1c(NC(=O)CSc2nc3ccccc3[nH]2)sc2c1CC(C)(C)NC2(C)C
3,5%,0%,-3.4%,CC1=CC(C)C(C(=O)O)C(C(=O)O)C1 (stereo unspecified)
-2,?,-4%,?,CC1=Nc2ccccc2/C1=C/c1c(N)n2c(S(=O)(=O)CC(C)C)nsc2nc1=O
nt,?,29%,?,Cc1noc(/C=C/N(C)C)c1S(=O)(=O)N(C)Cc1ccc(F)cc1
7,4%,-3%,-6.0%,CC1(C)CC(NS(=O)(=O)c2ccccc2)CC(C)(C)N1
0,-6%,0%,4.4%,COC(=O)c1scc(S(C)(=O)=O)c1-n1cccc1
0,7%,0%,1.3%,CN(C)S(=O)(=O)c1cccc(NC(=O)COC(=O)CNC(=O)c2ccccc2F)c1
-2,0%,-3%,-1.8%,CC12CC3CC(C)(C1)CC(C(=O)NC1=NCCS1)(C3)C2
nt,-9%,4%,-1.2%,COc1ccc(C(=O)Nc2ccc(S(=O)(=O)N3CCN(C)CC3)cc2)cc1[N+](=O)[O-]
3,-12%,-7%,-1.8%,Cc1nn(-c2ccccc2)c(C)c1N
10,-1%,-1%,5.2%,COc1ccccc1CNC(=O)C1CCCN(S(=O)(=O)c2cnc[nH]2)C1 (stereo unspecified)
nt,-13%,nt,0.0%,CCCn1c(N)c(N(CCOC)C(=O)c2ccc(-c3ccccc3)cc2)c(=O)[nH]c1=O
nt,-1%,-1%,-2.2%,Cc1noc(C)c1S(=O)(=O)N(CC(=O)NCc1ccc(F)cc1)c1ccc(C(C)C)cc1
2,1%,-5%,2.7%,CCC1(C)Cc2ccccc2-c2nc3n(c(=O)c21)CCCCC3 (stereo unspecified)
0,-4%,-36%,0.3%,O=C(N/N=C/c1ccco1)c1cccc(N2CCCC2=O)c1

(further entries)
GLA inh pH 4.5,Rango release inh,miR-21 reporter,Rango-impB inh,SMILES
nt,-8%,0%,?,CC(=O)Nc1ccc(Nc2ccc([N+](=O)[O-])cn2)cc1
nt,0%,0%&18%,-0.5%,COc1cccc(-c2nc(CS(=O)(=O)CC(=O)Nc3cccc(C(C)=O)c3)c(C)o2)c1
-4,1%,6%,0.2%,CCCN1CCN(CCCNC(=O)c2cc3c(=O)n(C)c4ccccc4c3n2C)CC1
-1,-10%,-2%,0.8%,C=CCNC(=S)NS(=O)(=O)c1cccs1
-2,40%,-21%,-0.1%,CN(CC1COc2ccccc2O1)C(=S)NC1CCCCC1 (stereo unspecified)
8,-6%,0%,4.2%,O=C(COC(=O)c1ccc(S(=O)(=O)N2CCc3ccccc3C2)cc1)NC(=O)NCc1ccco1
5,3%,2%,4.3%,CCCCOc1cccc(C(=O)N(Cc2ccco2)C2CCS(=O)(=O)C2)c1 (stereo unspecified)
-8,-7%,-4%&-11%,-1.1%,CCN(CC)S(=O)(=O)c1ccc(OC)c(-n2cnnn2)c1
-2,11%,-3%,4.9%,O=C(NCc1cccc(CNC(=O)c2ccco2)c1)c1ccco1
